From PubChem BioAssay
RGS16-Gao = modulates binding between human RGS16 and Galphao; bead-based flow cytometry RGS16-Galphao binding, fluorescence; actives lie on both sides; binding response (% of control), % at 10 µM; actives 0.38% (n = 220,000);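 active = below 25% or above 175%, edge rows of some plates excepted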;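 note: Galphao activated by GDP with aluminum fluoride before binding; 100% = wells without compound and 0% = beads without RGS; some results beyond the cut were filed as inactive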
Target sequence (O15492 whole entry, looked up): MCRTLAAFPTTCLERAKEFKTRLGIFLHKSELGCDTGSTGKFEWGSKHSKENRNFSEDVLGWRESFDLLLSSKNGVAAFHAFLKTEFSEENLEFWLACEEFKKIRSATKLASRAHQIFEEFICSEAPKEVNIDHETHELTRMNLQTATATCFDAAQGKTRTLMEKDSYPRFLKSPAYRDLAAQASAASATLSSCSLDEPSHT
Target sequence (P09471 whole entry, looked up): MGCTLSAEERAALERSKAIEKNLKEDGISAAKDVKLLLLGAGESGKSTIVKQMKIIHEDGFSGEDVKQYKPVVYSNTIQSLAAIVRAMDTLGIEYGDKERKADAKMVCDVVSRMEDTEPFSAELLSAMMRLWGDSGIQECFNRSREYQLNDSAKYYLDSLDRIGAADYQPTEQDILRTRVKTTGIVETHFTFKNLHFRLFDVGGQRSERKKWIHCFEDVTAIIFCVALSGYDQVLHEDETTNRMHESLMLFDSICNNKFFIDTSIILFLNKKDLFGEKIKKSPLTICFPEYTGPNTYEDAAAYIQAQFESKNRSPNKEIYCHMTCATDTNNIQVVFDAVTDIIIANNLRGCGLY
INS promoter inh = TRM-6 insulin promoter activity inhibition | inhibition, % at 2 µM | actives 0.9% (n = 130,000) | TRM-6 cells (human fetal islet line), insulin promoter-eGFP reporter, imaging; reporter expression induced with tamoxifen;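 active = inhibition above the mean plus 3 SD, with well images judged a real hit on visual review, cut at about 60% in these data, passing the limit was not always enough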
GALR2 agonist = agonists of human galanin receptor 2 (GALR2) | O43603 | GALR2-expressing cells, agonist activation read-out | activation, %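 (tested at 5 µM)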 | actives 0.48% (n = 140,000);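 active = above mean plus 3 SD of all compounds, about 5% in these data, not always enough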;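 note: 0% = vehicle buffer wells and 100% = reference agonist at full effect; tested in CHO reporter cells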
Target sequence (O43603 whole entry, looked up): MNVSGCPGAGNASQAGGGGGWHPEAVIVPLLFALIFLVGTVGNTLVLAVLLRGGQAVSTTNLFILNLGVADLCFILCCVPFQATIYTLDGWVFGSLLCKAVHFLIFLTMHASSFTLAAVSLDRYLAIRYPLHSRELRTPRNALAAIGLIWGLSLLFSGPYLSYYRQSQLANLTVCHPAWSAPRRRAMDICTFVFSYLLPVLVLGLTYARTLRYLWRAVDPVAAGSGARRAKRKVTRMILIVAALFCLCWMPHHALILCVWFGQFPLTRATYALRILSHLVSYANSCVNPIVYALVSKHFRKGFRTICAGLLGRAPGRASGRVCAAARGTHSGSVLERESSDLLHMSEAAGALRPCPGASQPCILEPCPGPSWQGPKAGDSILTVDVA
HSV augment = increases HSV replication in cells; HSV replication augmentation in cells, fold increase; maximum fold increase; actives 0.005% (n = 220,000);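 active = peak rise of 1.5-fold or more in the series; tested in PC3 cells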;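 note: first round at 10 µM; read as green reporter fluorescence; hits show the peak of a series up to 25 µM; 1 = signal of infected wells without compound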
PKD1 kinase inh = PKD1 (human) kinase inhibition; Q15139; PKD1 kinase fluorescence polarization assay; inhibition, %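 (about 10 µM by stock and volumes)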; actives 0.056% (n = 200,000);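 active = inhibition of 50% or more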;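 note: controls were vehicle for no effect and a reference inhibitor for full effect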
INS promoter inh cell count = also measured in INS promoter inh; calls as there; normalized cell count, %; measured here: cell count, toxicity; reference of the scale not given here;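 cells exposed to compound for 48 h; stained nuclei by imaging scaled within each plate; lower means fewer cells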
HSV augment primary fold = also measured in HSV augment; calls as there; fold increase; compound at 10 µM; measured here: primary screen fold increase 10 uM; tested in PC3 cells;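 GFP signal in the first replicate; 1 = infected wells without compound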
An asterisk follows results filed as active; i = inactive; x = no result given.

Each structure is followed by: RGS16-Gao, INS promoter inh, INS promoter inh cell count, GALR2 agonist, HSV augment, HSV augment primary fold, PKD1 kinase inh
> CCN(CC)S(=O)(=O)c1cccc(C(=O)N[C@H](C(=O)Nc2nc3ccccc3s2)C(C)C)c1
  82.3, x, x, -0.6, i, 0.99, 0.9
> C=CCOc1cccc(C2C(C(=O)c3ccco3)=C(O)C(=O)N2CCN(CC)CC)c1 (stereo not given)
  101.9, -25.0, 64.4, -2.3, i, 1.06, -11.1
> COc1cc(-c2nc(-c3ccc4c(c3)-c3ccccc3S4(=O)=O)c(-c3ccccc3)[nH]2)cc(OC)c1O
  97.8, 37.0, 106.2, -0.3, i, 0.77, 11.0
> COc1ccc(C(C(=O)NC2CCCCC2)N(C(=O)CCl)c2ccc(C)cc2)cc1 (stereo not given)
  96.1, i, 0.9, -1.9, i, 0.58, -13.2
> O=C(CSCc1ccccc1)Nc1ccc(S(=O)(=O)N2CCOCC2)cc1
  90.7, -16.1, 44.6, -0.8, i, 0.96, -0.2
> O=C(Nc1cccc([N+](=O)[O-])c1)C(=O)N1CCCCC1
  99.9, x, x, x, i, 1, -7.1
> COc1ccc(C(=O)NNC(=S)NC(=O)c2ccc(Br)o2)cc1OC
  105.2, x, x, x, i, 1, 1.8
> O=C(CSc1nnc(-c2ccncc2)n1-c1ccc(Cl)cc1)N1CCOCC1
  104.4, -2.3, 145.2, 1.3, i, 0.81, -2.6
> CCN(CCNC(=O)CN(C)S(=O)(=O)c1cccc2nsnc12)c1ccccc1
  109.2, 2.9, 75.9, -1.4, i, 0.93, 1.6
> Cc1ccc(Cn2cnc3c(nnn3Cc3ccc(Cl)cc3)c2=O)cc1
  97.1, -42.9, 95.1, -2.8, i, 1.03, 7.7
> C#CCOCCOCCOCCNc1nc(N2CCN(C(=O)[C@H]([C@@H](C)CC)n3cc(CCC(=O)O)nn3)CC2)nc(N2CCN(C(=O)[C@H](C)n3cc(CCCN=C(N)N)nn3)CC2)n1
  108.2, 22.7, 134.5, -0.8, i, 0.93, -1.4
> CCS(=O)(=O)N1N=C(c2ccccc2)CC1c1ccc2nccnc2c1 (stereo not given)
  98.5, -56.2, 170.5, -0.9, i, 1.05, -4.6
> COc1ccc(CNC(=O)CCc2nc3cc(S(=O)(=O)N(C)C)ccc3n2C)cc1OC
  101.9, 22.2, 100.0, x, i, 1.01, 1.2
> CC(C)(C)c1ccc(OC(=O)c2ccc(-n3cncn3)nc2)cc1
  105.8, 44.4, 207.5, x, i, 1, -11.7
> Cc1ccc(NC(=O)Nc2cccc([N+](=O)[O-])c2)nc1
  99.5, -14.3, 161.5, x, i, 1.04, 4.3
> O=S(=O)(Nc1ccccc1O)c1ccc(Cl)nc1
  103.2, x, x, x, i, 0.96, x
> COc1cc(/C=N/NC(=O)CCN2CCCCC2)ccc1O
  98.7, 0.0, 136.2, x, i, 1, -8.7
> Cc1nc(N)c(CC(Br)CBr)c(Cl)n1 (stereo not given)
  93.2, x, x, x, i, 0.96, x
> CCCCCCCCCn1c2c(c(=N)c3c1CCC3)CCCC2
  98.7, -300.0, 32.4, x, i, 0.64, -0.2
> CCc1nnc(NC(=O)CSc2nnc(CNc3ccc(F)cc3)n2C2CCCCC2)s1
  99.5, x, x, -1.3, i, 1.11, 8.8
> CN(C)c1ccc(N2CN=C3SCC(=O)N3C2)cc1
  65.9, -55.6, 86.9, -3.9, i, 0.87, -11.8
> Fc1cccc(Cl)c1CSc1ccc(-c2cccnc2)nn1
  72.2, -33.3, 63.1, x, i, 0.8, -0.8
> CCC(=O)Nc1ccc(NC(=S)NC(=O)/C=C/c2ccccc2)cc1
  94.4, 50.0, 76.9, 1.0, i, 0.78, -5.8
> O=C(NCc1ccco1)/C(=C\c1ccco1)NC(=O)c1ccc(Br)o1
  101.6, -100.0, 23.9, -1.8, i, 1.03, -13.1
> Cc1cc(NC(=O)c2nn3cccnc3c2Cl)no1
  106.3, x, x, 0.1, i, 0.87, 2.7
> Cc1cccc(OCc2nnc(NC(=O)c3cccs3)s2)c1
  83.6, -5.6, 77.7, -0.7, i, 0.87, 0.8
> C=C(C)CC1N(c2cccc(OC)c2)C(=O)[C@@H]2C(C(=O)O)[C@H]3C=C[C@@]12O3 (stereo not given in full)
  107.0, x, x, 0.3, i, 0.94, -2.0
> COc1ccc(NC(=O)COC(=O)C2CCC(C(C)(C)C)CC2)c([N+](=O)[O-])c1 (stereo not given)
  98.7, 17.6, 69.8, -0.6, i, 0.96, -4.9
> COc1ccc(NC(=S)N(CCCN2CCCC2)Cc2cccn2Cc2ccc(Cl)cc2)cc1Cl
  102.5, x, x, x, i, 0.68, -0.2
> Cc1nc2ccccc2c2oc(C(=O)NCc3ccccn3)cc12
  140.0, -3.9, 63.8, -1.1, i, 1.09, -14.3
> O=C(/C=C/c1ccc2c(c1)OCO2)NCc1cn2cc(Cl)ccc2n1
  102.8, x, x, x, i, 0.89, -5.4
> N#CCCN(Cc1cccs1)C(=O)Nc1ccc(F)cc1
  104.0, x, x, x, i, 0.99, x
> COC(=O)N1CCN(c2ccc(Cl)c(Cl)c2)CC1
  96.0, -50.0, 70.7, -2.3, i, 1, 8.0
> CC(C)N1CCC(NC(=O)Nc2ccc3c(c2)OCO3)CC1
  92.5, x, x, x, i, 0.97, -5.1
> CCOc1ccc(Cl)cc1/C=N/NC(N)=O
  100.9, 15.8, 131.9, x, i, 1.05, -1.0
> CC(=O)c1cccc(NC(=O)c2ccc3c(=O)n4c(nc3c2)CCCCC4)c1
  93.3, 41.7, 74.7, x, i, 1, -2.6
> COCCNC(=O)c1onc(CSc2cccc(Cl)c2)c1C(=O)O
  96.4, x, x, -1.9, i, 0.94, -5.5
> COC(=O)c1[nH]c2cc(C)ccc2c1NC(=O)CN1CCN(C(=O)c2ccco2)CC1
  129.0, 48.5, 95.4, -2.4, i, 0.99, 11.1
> Cc1cc(NC(=O)CSc2nc(-c3ccco3)cc(C(F)(F)F)n2)no1
  79.5, 70.0, 86.2, -1.9, i, 1.03, 0.2
> Cc1c(Cc2ccccc2)c(=O)oc2cc(OCc3nn[nH]n3)ccc12
  91.6, -6.9, 64.5, -0.4, i, 0.98, -3.0
> CCOC(=O)c1ccc(NC(=O)Nc2cccc(C)n2)cc1
  94.9, 55.6, 105.2, x, i, 0.87, -9.9
> Oc1ccc(Br)cc1-c1ccn[nH]1
  25.8, -30.8, 116.3, -1.0, i, 0.97, 0.7
> COC(=O)CC/C(=N/Nc1ccc(Cl)c(Cl)c1)C(=O)OC
  103.0, x, x, x, i, 0.92, 6.1
> CCOC(=O)C(=O)C1=C(N2CCOCC2)/C(=C\c2ccc(F)cc2)CC1
  9.0, -6.5, 81.4, 0.1, i, 1.04, 5.3
> COC(=O)c1cc(C#N)c(=O)[nH]c1C
  102.2, x, x, x, i, 1.07, -0.2
> Cc1c(-c2cccc(Cl)c2)nc2ccccc2c1C(=O)OCC(=O)N(C)C1CCS(=O)(=O)C1 (stereo not given)
  100.3, 35.0, 112.9, x, i, 0.82, 6.9
> CC(C)(C)SCCNS(=O)(=O)c1ccccc1
  -28.0, 0.0, 118.0, -2.7, i, 1, 8.9
> O=C(O)Cn1cc(C(=O)C(F)(F)F)c2ccccc21
  102.3, x, x, x, i, 1.07, 3.8
> COc1cc(OC)cc(C(=O)Nc2ccc(S(=O)(=O)Nc3nc(C)cc(C)n3)cc2)c1
  105.5, x, x, x, i, 0.6, -8.9
> CC(=O)N1CC[n+]2c(-c3ccc([N+](=O)[O-])cc3)csc21
  12.8*, x, x, x, i, 1, x
> CC1Cc2ccccc2N1C(=O)CSc1nccc(=O)[nH]1 (stereo not given)
  100.2, 25.9, 103.3, x, i, 0.93, -1.6
> COc1ccc2nc(NCc3ccccc3)[nH]c2c1
  111.3, 0.0, 111.7, -0.7, i, 0.79, -2.1
> COc1ccc(CC(NC(C)=O)C(=O)NC2CCN(C(=O)NCc3ccccc3)CC2)cc1 (stereo not given)
  105.1, x, x, 0.4, i, 0.84, -0.5
> Cc1cc(NC(=O)c2sccc2C)n(-c2nc3ccccc3[nH]2)n1
  103.5, x, x, x, i, 0.9, 2.0
> CCC(=O)Nc1nnc(CCc2ccccc2)s1
  95.2, -143.2, 99.3, -1.1, i, 1.07, -2.9
> CSc1nc(Oc2ccccc2)c2sccc2n1
  102.7, 0.0, 104.0, -1.4, i, 0.84, -3.8
> O=C(CSc1nnc(CNc2ccc(F)cc2)o1)N1c2ccccc2Sc2ccccc21
  103.0, -13.6, 93.3, 0.2, i, 0.94, 2.3
> OCCOCCNc1ncnc2c1cnn2-c1ccccc1
  109.0, 41.9, 164.5, -3.0, i, 1.01, -8.7
> CC(OC(=O)c1ccc(S(=O)(=O)N(C)C)cc1)C(=O)Nc1ccc(Cl)cn1 (stereo not given)
  99.8, x, x, x, i, 0.94, -3.1
> C=CCN1C(=O)C(CC(=O)Nc2ccccc2)SC1=Nc1c(C)n(C)n(-c2ccccc2)c1=O (stereo not given)
  109.8, 2.6, 167.6, -0.9, i, 0.91, -7.4

Following part.
Each structure is followed by: RGS16-Gao, INS promoter inh, INS promoter inh cell count, GALR2 agonist, HSV augment, HSV augment primary fold, PKD1 kinase inh
> CCCn1c(=O)c2ccccc2n2c(SCc3c(C(=O)OCC)oc4ccccc34)nnc12
  99.4, 9.1, 67.5, -0.8, i, 0.81, -4.6
> CC1(C)Cc2c(sc3nc(SCC(=O)NCc4ccccc4)n(-c4ccccc4)c(=O)c23)CS1
  102.1, 50.0, 82.3, -1.9, i, 0.963, 6.0
> O=c1[nH]cc(F)c(=O)[nH]1
  98.7, -28.6, 143.0, -2.1, i, 0.66, -4.0
> COc1ccc(C(=O)/C=C/c2ccccc2)c(O)c1
  107.9, x, x, x, i, 0.73, 6.3
> O=C(CCCOc1ccccc1)Nc1cccc([N+](=O)[O-])c1
  101.8, 76.9*, 108.3*, x, i, 0.85, -4.0
> CCOC(=O)/C(C#N)=C\N(C)C
  89.1, -32.0, 122.9, -0.5, x, x, -10.2
> O=C(CC1(O)C(=O)c2ccccc2C1=O)c1ccccc1
  107.5, -14.3, 73.6, -3.1, i, 0.96, -3.2
> COc1cc2c(cc1OC)C(C)N(C(=O)c1c(-c3ccccc3)noc1C)CC2 (stereo not given)
  96.4, x, x, x, i, 0.7, x
> Cn1c(=O)c2c(nc(CN3CCOCC3)n2CCCc2ccccc2)n(C)c1=O
  89.8, x, x, -1.9, i, 0.93, -4.0
> COc1cc2[nH]c(=O)n(C3CCCCC3)c(=O)c2cc1OC
  87.5, 21.4, 112.7, -3.0, i, 0.95, -5.6
> CC(=O)N(Cc1ccccc1)Cc1nc2sc(C)c(C)c2c(=O)[nH]1
  98.1, x, x, x, i, 0.95, -3.0
> CC1=C/C(=N\OS(=O)(=O)c2ccccc2)C=CC1=O
  81.6, -15.4, 92.3, -2.0, x, x, -4.5
> Cc1nn2c3c(cnc2c1-c1ccccc1)C(=O)CC(c1ccccc1)C3 (stereo not given)
  104.8, -22.2, 241.4, -6.9, i, 0.69, 5.3
> Cc1ccc(S(=O)(=O)Oc2ccccc2/C=N/O)cc1
  102.0, 58.8, 88.5, x, i, 1.09, 1.9
> O=C(O)c1cc(NN=Nc2cccc([N+](=O)[O-])c2)cc([N+](=O)[O-])c1
  94.4, x, x, x, i, 1.1, x
> O=C1C2C3C=CC(C3)C2C(=O)N1Cc1cccnc1 (stereo not given)
  99.5, 29.0, 135.6, -1.4, i, 1.13, -4.8
> CSc1ccc(-c2c(C#N)c(N)nc3c2c(C)nn3-c2ccccc2)cc1
  92.5, -64.3, 159.9, 2.1, i, 0.86, 2.7
> COC(=O)c1ccc(CNC(=O)/C=C/c2cc([N+](=O)[O-])ccc2OC(F)F)cc1
  101.3, x, x, -4.2, i, 0.9, -4.7

Some of the entries so far, with bars between the fields:
canonical_smiles | RGS16-Gao | INS promoter inh | INS promoter inh cell count | GALR2 agonist | HSV augment | HSV augment primary fold | PKD1 kinase inh
Cc1ccc(S(=O)(=O)Oc2ccccc2/C=N/O)cc1 | 102.0 | 58.8 | 88.5 | x | i | 1.09 | 1.9
Cn1c(=O)c2c(nc(CN3CCOCC3)n2CCCc2ccccc2)n(C)c1=O | 89.8 | x | x | -1.9 | i | 0.93 | -4.0
